# Akt phos inh: Akt phosphorylation inhibition; actives 0.32% (n = 360,000); Neuro2A IGF-stimulated pAkt S473 HTRF, 20 min; active compounds read low; AID 651550; activity change, % for hits at 50 µM; in the data active = activity change below about -80%; inconclusive = mostly about -51% to -80%; also: % is scaled to controls: 0 for no effect and ±100 for the full control effect
#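 Neuro2A cells in DMEM with 0.5% FBS, overnight at 37 deg C, given compound at single 50 µM final, then IGF (6 nM final) for 20 min at 37 deg C. Lysed; phospho-Akt Ser473 by HTRF after 24 h, 665/615 ratio.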
# PTHR1 agonist: agonists of human PTHR1 parathyroid hormone receptor | HEK293 GP2 PTHR1 cells, GloSensor cAMP luminescence, 1 h | actives 0.075% (n = 410,000) | AID 743266 | Potency, µM (doses to about 115 µM), inactives show at the top dose activation, actives largely listed as activators | Q03431; also: potency is read from the fitted curve at half-maximal effect; nearly all actives have a fitted effect of over 55% in size; some results filed as inactive show a strong effect at the top dose; inactives centre near -15; many of its hits are not listed in these tables
# Target sequence (Q03431 whole entry, looked up): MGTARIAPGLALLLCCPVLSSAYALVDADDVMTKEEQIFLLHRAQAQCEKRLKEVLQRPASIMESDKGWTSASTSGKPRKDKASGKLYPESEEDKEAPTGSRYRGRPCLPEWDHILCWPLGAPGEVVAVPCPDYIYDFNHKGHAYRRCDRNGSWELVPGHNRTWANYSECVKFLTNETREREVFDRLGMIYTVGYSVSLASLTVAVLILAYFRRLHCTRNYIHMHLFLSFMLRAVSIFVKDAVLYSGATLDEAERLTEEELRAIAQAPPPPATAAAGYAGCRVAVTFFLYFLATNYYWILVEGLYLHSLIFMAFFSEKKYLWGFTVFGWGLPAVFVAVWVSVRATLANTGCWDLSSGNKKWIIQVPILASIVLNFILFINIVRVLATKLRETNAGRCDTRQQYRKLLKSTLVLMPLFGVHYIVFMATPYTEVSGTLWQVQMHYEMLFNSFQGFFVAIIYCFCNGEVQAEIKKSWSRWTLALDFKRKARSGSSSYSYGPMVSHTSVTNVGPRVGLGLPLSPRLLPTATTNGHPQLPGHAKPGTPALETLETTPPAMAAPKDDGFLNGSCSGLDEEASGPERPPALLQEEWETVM
#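 HEK-293-derived GP2 cells expressing PTHR1 and a GloSensor cAMP reporter, 3,000/well, plated overnight, given luciferin plus IBMX (each 0.5 mM as added) for 1 h at 37 °C, then compound for 1 h at 37 °C. Luminescence was read after 15 min at room temperature.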
# Mm-Cpn inhibitor: blocks the Methanococcus maripaludis chaperonin Mm-Cpn; purified Mm-Cpn ATPase, ADP Transcreener TR-FRET; Potency, µM (titrated, usually from 76.9 µM), for the others: top-dose activity, negative = inhibition, actives largely listed as inhibitors; actives 0.031% (n = 330,000); AID 504842; also: potency is read from the fitted curve at half-maximal effect; % is scaled to controls: 0 for no effect and ±100 for the full control effect; nearly all actives have a fitted effect of over 80% in size
#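 ATPase turnover read by TR-FRET ADP competition (Eu cryptate antibody/ADP-d2, 665/590 nm): 10uM ATP final, 25nM Mm-CPN final, 30 min 37degC after 10-min compound preincubation, pH 7.4 Tris/KCl/MgCl2/DTT buffer.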
# TDP43 rescue: rescues yeast growth from TDP-43 toxicity; TDP-43 expressing yeast growth rescue, BacTiter-Glo, 24 h; Potency, µM (highest dose often 46.1 µM), inactives show at the highest dose growth rescue (activation), usual class: activators; actives 1.8% (n = 410,000); AID 652104; also: potency is read from the fitted curve at half-maximal effect; % of control where 0% means no effect; nearly all actives have a fitted effect of over 50% in size
#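 Yeast cells expressing TDP-43 under galactose induction are exposed to compounds for 24 hr at 30 deg C. BacTiter-Glo luminescence measures growth, so protective compounds score as activators.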
# aSyn yeast inh: inhibitors of alpha-synuclein toxicity in yeast; Potency, µM (top dose mostly 46.1 µM), inactives show at the top dose growth rescue (activation), usual class: activators; AID 652106; Yeast expressing alpha-synuclein, growth rescue, BacTiter-Glo, 24 h; actives 0.14% (n = 370,000); also: potency is read from the fitted curve at half-maximal effect; % of control where 0% means no effect; nearly all actives have a fitted effect of over 65% in size
#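 Readout is rescue of growth in alpha-synuclein-expressing yeast, so inhibitors of toxicity appear as activators. Growth after 24 hr at 30 deg C in galactose medium is quantified by luminescence.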
# FUS yeast rescue: FUS proteinopathy suppression in yeast. S. cerevisiae FUS-expressing, growth rescue, OD600, 24 h. Potency, µM (highest dose often 76.6 µM), for inactives: at the highest dose growth rescue (activation), most hits filed as activators. actives 0.24% (n = 390,000). AID 1347120;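 also: potency is read from the fitted curve at half-maximal effect; plate controls were DMSO vehicle for no effect and reference control for full effect; nearly all actives have a fitted effect of over 55% in size; some results filed as inactive show a strong effect at the top dose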
#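 Restored growth of FUS-toxic S. cerevisiae, read as 600 nm absorbance after 24 h at 30C in galactose medium (starting OD 0.005). Controls CP55940 and DMSO.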
# Starred values were filed as active, the others as inactive; i = inactive; u = inconclusive; x = no result given; & = joins results of further samples; ! = repeats disagree; [ ] = another dose, or the depositor's remark. Unless noted, calls follow the shape of the dose curve; as a rule, active = well fitted curve in the direction sought with a large enough effect; inconclusive = small, poorly fitted or top-dose-only effect, or another doubt; inactive = no such curve, though single readings can be large; an effect the other way counts as inactive or inconclusive.
# Keys – A = Akt phos inh; B = PTHR1 agonist; C = Mm-Cpn inhibitor; D = TDP43 rescue; E = aSyn yeast inh; F = FUS yeast rescue
1: CN(C)CCC(c1ccc(Br)cc1)c1ccccn1 (stereo not given)
  A: i; B: -8%&-23%; C: -2%&2%; D: -8%&20%&4%; E: 8%&-1%&12%&-1%; F: -36%&-31%&-20%

2: COC(=O)CCC(=O)CN
  A: i; B: i; C: -5%; D: u; E: 1%; F: -36%

3: OCC(O)[C@@H](O[C@H]1O[C@H](CO)[C@@H](O)[C@H](O)[C@H]1O)[C@H](O)[C@@H](O)CO (stereo not given in full)
  A: i; B: -1%; C: -8%; D: 0%; E: 11%; F: -11%

4: Clc1ccc(N2CCN(Cc3c[nH]c4ncccc34)CC2)cc1
  A: i; B: 0%; C: 0%; D: 7%; E: 4%&2%; F: -24%

5: CCC(NC(C)C)C(O)c1ccc(O)c(O)c1 (stereo not given)
  A: i; B: u; C: 1%[15.4 µM]; D: 20%; E: -2%&-1%; F: -37%

6: COC(=O)c1ccc2c(c1)C(C)(C)C(/C=C/c1ccc(O)cc1)=[N+]2C
  A: i; B: -18%[57.5 µM]; C: -9%; D: -53%[inhibitor]; E: -33%[inhibitor]; F: 25%

7: CC1=NS(=O)(=O)c2cc(Cl)ccc2N1
  A: i; B: -3%; C: -5%[15.4 µM]; D: 14%; E: -1%&-4%; F: -25%

8: Cc1cccn2c(=O)c3cc(C(=O)NCCc4ccccc4)c(=N)n(CCCn4ccnc4)c3nc12
  A: i; B: i; C: 2%; D: -1%; E: 8%; F: 11%

9: CC(C)NCC(O)c1cc(O)cc(O)c1 (stereo not given)
  A: i; B: -3%; C: 1%; D: 0%; E: -1%&2%; F: -21%

10: CCCCc1nc(Cl)c(CO)n1Cc1ccc(-c2ccccc2-c2nnn[nH]2)cc1
  A: i; B: -13%; C: x; D: 0%; E: -5%; F: -2%

# Entries by screen from the entries so far.
# aSyn yeast inh, entries 1 to 9 → 8%&-1%&12%&-1%, 1%, 11%, 4%&2%, -2%&-1%, -33%[inhibitor], -1%&-4%, 8%, -1%&2%
# Akt phos inh, entries 1 to 9 → i, i, i, i, i, i, i, i, i
# FUS yeast rescue, entries 1 to 9 → -36%&-31%&-20%, -36%, -11%, -24%, -37%, 25%, -25%, 11%, -21%

# Returning to the listing, starting 2 compounds before the break.
# Keys – A = Akt phos inh; B = PTHR1 agonist; C = Mm-Cpn inhibitor; D = TDP43 rescue; E = aSyn yeast inh; F = FUS yeast rescue
9: CC(C)NCC(O)c1cc(O)cc(O)c1 (stereo not given)
  A: i; B: -3%; C: 1%; D: 0%; E: -1%&2%; F: -21%

10: CCCCc1nc(Cl)c(CO)n1Cc1ccc(-c2ccccc2-c2nnn[nH]2)cc1
  A: i; B: -13%; C: x; D: 0%; E: -5%; F: -2%

11: CN(C)C(=O)Oc1ccc[n+](C)c1
  A: i; B: -15%; C: -1%[15.4 µM]; D: 13%; E: 8%&1%; F: -23%

12: Fc1ccc(C(c2ccc(F)cc2)N2CCN(C/C=C/c3ccccc3)CC2)cc1
  A: i; B: -25%; C: 0%[15.4 µM]; D: 22%; E: 0%&3%; F: -3%

13: CC1=C/C(=C(\c2cc(C)c(O)c(Br)c2)c2ccccc2S(=O)(=O)O)C=C(Br)C1=O
  A: i; B: -72%[inhibitor]; C: u; D: -53%[inhibitor]; E: -55%[inhibitor]; F: -11%

14: CCN1CCC[C@H]1CNC(=O)c1c(OC)ccc(Br)c1OC
  A: i; B: -1%; C: -2%; D: 4%; E: 2%; F: -33%

15: CN(C)CC[C@@H](c1ccc(Br)cc1)c1ccccn1
  A: i; B: -18%; C: x; D: 0%; E: -2%&9%; F: -12%

16: CNCC(O)C(O)C(O)C(O)CO (stereo not given)
  A: i; B: i; C: x; D: 16%; E: -2%; F: 0%

17: COc1ccc(OC)c(Cc2cnc3nc(N)nc(N)c3c2C)c1
  A: i; B: i; C: x; D: 11%; E: -15%; F: x

18: Cc1cc(C(=O)NNCc2ccccc2)no1
  A: i; B: -19%; C: -3%; D: 22%; E: 0%; F: -37%

19: Nc1ccc(S(=O)(=O)Nc2ccccn2)cc1
  A: i; B: -4%; C: 2%; D: 14%; E: -1%; F: -22%

20: N[C@@H]1CONC1=O
  A: x; B: x; C: 4%; D: x; E: -9%; F: x

# An excerpt of these results, as labelled records.
(17) COc1ccc(OC)c(Cc2cnc3nc(N)nc(N)c3c2C)c1
  Akt phos inh = i; PTHR1 agonist = i; Mm-Cpn inhibitor = x; TDP43 rescue = 11%; aSyn yeast inh = -15%; FUS yeast rescue = x

(13) CC1=C/C(=C(\c2cc(C)c(O)c(Br)c2)c2ccccc2S(=O)(=O)O)C=C(Br)C1=O
  Akt phos inh = i; PTHR1 agonist = -72%[inhibitor]; Mm-Cpn inhibitor = u; TDP43 rescue = -53%[inhibitor]; aSyn yeast inh = -55%[inhibitor]; FUS yeast rescue = -11%

# New compounds follow:
# Keys – A = Akt phos inh; B = PTHR1 agonist; C = Mm-Cpn inhibitor; D = TDP43 rescue; E = aSyn yeast inh; F = FUS yeast rescue
21: C#CC1(O)CCC2C3CCC4=C(CCC(=O)C4)C3CCC21C (stereo not given)
  A: i; B: -24%; C: x; D: 7%; E: u; F: 5%

22: CCC1CCCCN1CCCNC(=O)c1cc2c(Cl)nc3ccccc3c2s1 (stereo not given)
  A: i; B: 25µM*!; C: -3%; D: -32%&-2%[inhibitor]; E: -2%; F: 9%&7%

23: CN[C@@H]1CC[C@H](c2ccc(Cl)c(Cl)c2)c2ccccc21
  A: i; B: -9%; C: 4%; D: -21%; E: -2%; F: -8%

24: N[C@H]1CONC1=O
  A: i; B: i; C: x; D: 7%; E: -7%&-4%; F: -26%

# Source: PubChem

# The list is partial; the hit share may differ from the screen's.
